Calb FLC: affects C. albicans growth with fluconazole; growth inhibition, % (test concentration not listed); 300,000 compounds, 0.57% hits; C. albicans CaCi-2 (fluconazole-resistant clinical isolate) + fluconazole, Alamar Blue growth, 48 h; AID 1979;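 active = most replicates above 75%; inconclusive = exactly half above 75%; inactive = most below 75%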;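 also: all wells also contain fluconazole at 8 µg/ml as a sub-toxic cotreatment; 0% = median of DMSO wells and 100% = median of geldanamycin control wells; wells of about 8 µL received 7.5 nL stock; the first replicate is given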
RanGTP-Impb inh: inhibitors of RanGTP-importin-beta interaction, primary screen, biochemical, FRET, CFP-Ran, YFP-importin-beta, homogeneous; inhibition, % (concentration not given with the values); cell-free CFP-Ran/YFP-importin-beta FRET ratio; 300,000 compounds, 1.1% hits; AID 2216;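 active = most replicates above 15%; inconclusive = exactly half above 15%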;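 also: 0% = DMSO wells and 100% = Ran loaded with GDP instead of GTP; wells of about 40 µL received 100 nL stock; the first replicate is given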
B2AR ag: activates human beta-2 adrenergic receptor causing internalization | P07550 | Am2.2-beta2AR cells, FAP receptor internalization, flow cytometry; reference of the scale not given here | response, % (concentration not given with the values) | 340,000 compounds, 0.43% hits | AID 504454;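 active = response above a set limit, near 3 SD of response in nonfluorescent compounds, cut at about 42% in these data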;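 also: stock transfer was 100 nL into about 11 µL; a reference agonist was the positive control; negative values mostly stem from fluorescent compounds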
LANA-H2B inh: blocks KSHV LANA binding to histone H2A/H2B | 320,000 compounds, 0.6% hits | Q9QR71 | cell-free LANA-H2A/H2B peptide, fluorescence polarization | inhibition, % (concentration not given with the values); in the data active = inhibition mostly above about 10%, no sharp cut-off; inactive = mostly below about 6.7%;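 also: stock transfer was 7.5 nL into about 10 µL; 0% = median of vehicle wells and 100% = median of positive control wells; one replicate is shown; the record names a cut of 25% in any replicate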
Target sequence (Q9QR71 whole entry, looked up): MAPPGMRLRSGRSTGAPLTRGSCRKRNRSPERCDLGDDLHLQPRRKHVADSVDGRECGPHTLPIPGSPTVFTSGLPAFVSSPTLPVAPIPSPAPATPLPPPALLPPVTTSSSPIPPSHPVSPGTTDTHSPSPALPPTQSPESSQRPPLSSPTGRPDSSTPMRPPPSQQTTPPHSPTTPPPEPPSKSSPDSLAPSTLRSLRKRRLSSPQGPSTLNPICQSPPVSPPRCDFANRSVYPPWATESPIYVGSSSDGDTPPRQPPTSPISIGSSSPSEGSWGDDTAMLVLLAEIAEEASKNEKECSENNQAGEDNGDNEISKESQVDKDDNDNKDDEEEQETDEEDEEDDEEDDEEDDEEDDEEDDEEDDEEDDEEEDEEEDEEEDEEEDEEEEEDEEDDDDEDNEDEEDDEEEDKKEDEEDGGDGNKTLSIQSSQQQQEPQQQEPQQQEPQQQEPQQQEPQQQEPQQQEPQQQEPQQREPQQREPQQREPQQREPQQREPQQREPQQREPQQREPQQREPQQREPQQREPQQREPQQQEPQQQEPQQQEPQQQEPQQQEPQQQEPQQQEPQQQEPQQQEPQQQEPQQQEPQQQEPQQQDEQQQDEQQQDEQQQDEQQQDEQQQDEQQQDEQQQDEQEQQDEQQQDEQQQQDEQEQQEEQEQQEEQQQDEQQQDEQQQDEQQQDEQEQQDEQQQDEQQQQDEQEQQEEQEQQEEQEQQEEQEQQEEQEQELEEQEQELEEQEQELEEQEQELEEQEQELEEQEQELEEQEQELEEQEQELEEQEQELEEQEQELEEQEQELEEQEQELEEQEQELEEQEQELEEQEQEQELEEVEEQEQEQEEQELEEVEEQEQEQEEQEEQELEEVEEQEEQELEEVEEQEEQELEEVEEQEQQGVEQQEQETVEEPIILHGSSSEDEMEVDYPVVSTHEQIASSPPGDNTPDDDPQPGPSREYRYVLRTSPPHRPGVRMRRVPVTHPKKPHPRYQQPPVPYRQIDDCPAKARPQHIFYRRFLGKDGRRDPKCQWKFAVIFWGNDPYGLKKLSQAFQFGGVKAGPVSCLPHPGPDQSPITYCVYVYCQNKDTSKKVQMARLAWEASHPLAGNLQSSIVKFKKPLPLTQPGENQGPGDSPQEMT
Beta cell apopt: blocks beta cell apoptosis. INS-1E cytokine-induced death, ATP luminescence, 48 h; percent of positive-control rescue, neutral wells zero. protection from apoptosis, % (concentration not given with the values). 300,000 compounds, 0.8% hits. AID 435005;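 active = all replicates at 75% or more, or half of them and the mean; inconclusive = half reach 75% but not the mean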;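 also: 0% = cytokine-treated negative control wells and 100% = positive control rescue; higher means more ATP so stronger rescue from cytokine killing; wells of about 40 µL received 100 nL stock; the first replicate is given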
UCH37 DUB inh: blocks the human deubiquitinase UCH37 | Q9Y5K5 | purified proteasome/UCH37, Ub-AMC cleavage fluorescence | inhibition, % (test concentration not listed) | 330,000 compounds, 0.33% hits | AID 588478;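 active = mean of two replicates above 20%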;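 also: 0% = compound-free wells with enzyme and 100% = wells lacking proteasome; stock transfer was 100 nL into about 20 µL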
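assay system = human UCH37 enzyme supplied as purified proteasome complex | amount = proteasome at 0.15 nM in the dispensed enzyme solution | schedule = 30 min compound-proteasome preincubation then 25 min substrate reaction, room temperature | measured by = fluorescence, ex 355 nm, em 460 nm | benchmarks = no-proteasome wells (full inhibition) and compound-free wells (no inhibition)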
T cruzi inh: T. cruzi replication inhibition; T. cruzi beta-gal in NIH3T3, luminescence, 90 h; inhibition, % (test concentration not listed); 300,000 compounds, 1.4% hits;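 active = mean inhibition across valid replicates above about 55%, limit read from the data; inconclusive = mean below that limit but half or more replicates reach it; inactive = mean below it, under half of replicates reach it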;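 also: signal also drops with host cell toxicity which is not excluded here; 0% = plate median of DMSO wells and 100% = zero luminescence signal; higher percent means less beta-gal luminescence so fewer parasites; stock transfer was 50 nL into about 50 µL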
A1 inh: inhibitors of the anti-apoptotic protein A1, read as caspase activation; MEF A1-2A-BIM cells, Caspase-Glo 3/7 luminescence, 3 h; percent of clofoctol response, vehicle zero; caspase activation, % (test concentration not listed); 330,000 compounds, 0.066% hits; AID 2462;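 active = over half of replicate activation scores above 10%, or exactly half above 10 with the replicate mean above 10; inconclusive = replicate mean below 10 yet half the replicates above 10; inactive = over half of replicates below 10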;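 also: wells of about 30 µL received 50 nL stock; many hits fall short of the cut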
* hit, by the source's call; ? = inconclusive; / = not tested or not shown.

SMILES	Calb FLC	RanGTP-Impb inh	B2AR ag	LANA-H2B inh	Beta cell apopt	UCH37 DUB inh	T cruzi inh	A1 inh
NC(=O)CSc1nc2cc([N+](=O)[O-])ccc2n1-c1cccc(C(F)(F)F)c1	?	2.3	0	1.0	6	1.7	-8	-0.6
Cc1ccc(OCCC(=O)NNC(=O)c2ccccc2F)cc1	/	/	17	-13	-1	2.9	/	-0.8
Cc1c(Cl)cccc1NC(=S)N1CCN(S(=O)(=O)c2cccs2)CC1	1	-2.2	-5	4.0	-7	0.7	6	-0.2
Cc1ccc2oc(=O)c3cnn(CC(=O)Nc4cc(-c5cccc(F)c5)no4)c3c2c1	-5	2.3	-11	0.8	-5	1.1	-7	-0.5
COc1ccc(-c2nc(C)ncc2-c2ccc(Cl)cc2)c(O)c1	-5	5.0	-6	-0.6	1	1.8	17	0.8
N#CCC(=O)Nc1ccc(C(=O)OCC(=O)N2CCN(C(=O)c3ccco3)CC2)cc1	/	/	-6	2.8	-5	4.2	/	0.2
CN(CC(=O)Nc1cccc(F)c1)C(=O)/C=C/c1cc(Br)ccc1OC(F)F	-1	-2.8	-7	-4.7	-2	4.8	-7	0.2
O=C(CC1C(=O)NCCN1CC(c1ccccc1)c1ccccc1)NCC1CCOCC1 (stereo unspecified)	0	-2.3	-6	-1.5	-3	3.7	-6	0.8
CC1CCCC2(C1)NC(=S)N(c1ccccc1)N2 (stereo unspecified)	?	4.8	-2	-4.0	3	3.4	-7	-0.8
O=C(Oc1cccc(Br)c1)c1cccnc1	2	-2.6	-3	3.8	2	4.1	5	0.4
O=C(O)c1cccc(Cn2c(Cl)c(/C=N/NC(=O)c3ccccc3)sc2=O)c1	-4	7.6	-4	1.8	-4	/	-11	-0.1
O=C(c1ccc2c(=O)n3c(nc2c1)CCCCC3)N1CCN(c2ccc(F)cc2)CC1	1	1.8	-11	-3.3	-3	3.2	7	1.7
O=C(COc1ccc(Cl)cc1Cl)NC(=O)c1ccccc1	-16	-1.8	2	-1.3	1	2.1	-2	-0.3
Cc1cccc(NC(=O)C2CCCN2S(=O)(=O)c2ccc(Cl)cc2)n1 (stereo unspecified)	-10	2.1	-8	2.4	6	/	-2	0.3
Cc1nc2cc(Cl)c(Cl)cc2nc1C	-8	0.8	-21	1.7	-4	1.9	-17	0.2
O=c1c(F)cn(C2CCCO2)c(=O)n1Cc1c(F)cccc1Cl (stereo unspecified)	107*	-0.9	3	2.4	-5	2.0	-5	0.6
CCOC(=O)NC(=O)COC(=O)c1ccc(Sc2ncn[nH]2)c([N+](=O)[O-])c1	-8	7.2	2	2.9	-7	6.8	-21	1.1
Cc1nccn1-c1ccc(C(F)(F)F)cc1[N+](=O)[O-]	7	3.0	-7	0.1	4	2.3	-23	-0.4
Oc1cc(Cc2ccccc2)cnc1CN1CCCCC1	1	4.0	-1	-1.6	2	1.1	2	-1.1
C/C(=N\Nc1cccc2cccnc12)c1ccc[nH]1	-7	-1.0	22	-0.1	-2	/	23	-7.4
COc1cccc(CN(C)C(=O)c2ccc(S(=O)(=O)N3CCCC3)cc2)c1OC	-9	-3.3	3	8.5	-1	3.0	17	1.4
c1ccc(-c2ncnc3nc4n(c23)CCC4)cc1	-14	-2.7	13	1.2	-6	0.5	0	1.0
COC(=O)c1ccc2ccn(CC(=O)NC3CCCCC3)c2c1	-2	1.7	0	3.0	-5	-54	2	2.0
Cc1ccc(NC(=O)c2c(C(F)(F)F)nn(C)c2SCc2cccc(C(F)(F)F)c2)cc1C	-21	0.3	-4	4.4	88*	3.3	59*	0.3
CN(C)S(=O)(=O)c1cccc(C(=O)OCC(=O)Nc2sccc2C(N)=O)c1	-13	0.1	5	3.0	/	-0.8	11	-0.7
CCSc1nnc(NC(=O)Cc2cc(OC)c(OC)c(OC)c2)s1	0	2.0	-1	2.7	0	1.7	-5	0.3
Cc1cccc(NC(=O)N2CCC(NC(=O)c3ccccc3C)CC2)c1	-22	-2.2	0	-0.8	-8	2.0	-11	0.4
O=C(NN=C1CCCC1)c1n[nH]c2c1CCC2	-17	0.1	-21	-3.1	-2	1.9	-7	-2.8
CCC(=O)N1CCCc2cc(S(=O)(=O)N3CCN(C4CCCCC4)CC3)ccc21	6	4.0	-6	-5.0	9	1.2	-17	0.6
COc1ccc(Cl)cc1C(=O)OCC(=O)NC(=O)c1cccn1C	?	-0.6	1	0.4	-6	1.3	-8	-8.5
CCS(=O)(=O)c1nc(S(=O)(=O)c2ccc(C)cc2)c(NCCN2CCOCC2)s1	-1	1.7	0	6.7	7	8.3	36	-0.2
COc1cc2c(c(OC)c1OC)CCc1cnoc1-2	/	6.2	2	-3.1	-9	4.5	-6	0.1
COc1ccc(C(=O)C2CCCN(C(=O)c3ccoc3C)C2)cc1F (stereo unspecified)	13	-3.5	-13	2.1	-2	2.6	-12	0.0
CN(C)S(=O)(=O)c1ccc(N2CCCC2)c(C(=O)Nc2ccc(F)cc2F)c1	-14	0.9	1	-3.2	3	1.8	5	0.8
O=C(Nc1cc(F)c(Br)cc1F)c1ccc(Cl)cc1	-8	-2.5	-3	-4.4	-5	1.9	29	-0.7
Cc1cc(C)nc(SCc2cc(=O)c(OC(=O)c3ccco3)co2)n1	-4	-0.8	9	-0.1	-2	4.8	4	0.1
O=C(Nc1cccc(F)c1)N(Cc1ccc(Cl)cc1)CC(O)C(F)(F)F (stereo unspecified)	-29	-1.0	-4	-3.7	8	0.8	22	-0.8
CCC(C)N(C(=O)COC(=O)/C=C/c1ccc(O)c(OC)c1)C1CCS(=O)(=O)C1 (stereo unspecified)	2	-10	4	1.8	-1	-16	-7	-0.3
Cc1cc(=S)[nH]c2ccccc12	-5	-0.5	4	3.9	-2	8.3	-11	-0.2
COC(=O)C[C@H]1c2ccc(C(F)(F)F)cc2S(=O)(=O)N1Cc1ccccc1	-3	3.8	-14	5.0	-7	0.8	-3	0.2
CC1(C)CC(=O)C(Sc2ccccc2C(=O)O)=C(O)C1	-6	-0.4	1	-1.0	-6	0.9	-10	0.5
O=C(O)c1cc2c(s1)-c1ccccc1OC2	-7	1.1	1	/	-9	-485	-1	-0.2
CCOc1ccc(S(=O)(=O)NCc2ccc3c(c2)OCO3)cc1C(=O)O	19	0.9	7	-2.0	-2	2.6	-8	-1.3
CC(=O)Nc1sc(N/N=C\c2cccc(Cl)c2)nc1-c1cccs1	-15	0.7	-3	-4.5	-2	/	0	?
COc1ccc2nc(C)c(C(N)=O)cc2c1	20	?	8	-0.8	-8	-30	-3	-0.1
COC(=O)[C@]1(Cc2ccccc2)N[C@H](c2ccc(-c3ccc4c(c3)OCO4)cc2)[C@@H]2C(=O)N(C)C(=O)[C@@H]21	-18	?	3	5.0	-4	0.2	3	1.9
O=[N+]([O-])c1ccc(NS(=O)(=O)N2CCOCC2)cc1	/	/	0	6.4	-4	11	/	-0.3
O=C(Nc1ccc(Cl)c(Cl)c1)N1CC=C(c2ccccc2)CC1	10	?	/	-19	/	3.3	43	0.0
COc1ccccc1NC(=O)c1ccc([N+](=O)[O-])o1	5	4.4	9	1.6	-11	6.1	26	1.3
COc1ccc(CS(=O)(=O)c2nc(C)cc(C)c2S(C)(=O)=O)cc1	13	-1.2	-3	5.1	-5	1.0	-21	-0.4

The listing continues.
SMILES	Calb FLC	RanGTP-Impb inh	B2AR ag	LANA-H2B inh	Beta cell apopt	UCH37 DUB inh	T cruzi inh	A1 inh
Cc1ccc(NCc2nnc(SCC(=O)O)n2Cc2ccccc2)cc1Cl	-11	-1.3	-9	0.1	-6	4.3	-7	0.0
CCOC(=O)c1cc(-c2ccccc2)sc1NC(=O)C(C)OC(=O)c1cccnc1Cl (stereo unspecified)	-6	0.1	-11	-3.7	4	-6.1	-19	0.3
Cc1cc(C)c(C#N)c(Nc2ccc(F)cc2)n1	0	4.2	-1	-2.2	-1	-20	-7	0.1
CCOC(=O)c1cc(NC(=O)Nc2ccccc2Cl)c(C)nc1C	6	-1.3	1	3.3	5	3.4	6	0.6
O=C(COC(=O)c1cccc(Cl)c1)Nc1ccc2[nH]c(=O)[nH]c2c1	-1	5.4	1	1.8	-3	1.0	-26	0.2
O=C(Cc1cccc([N+](=O)[O-])c1)Nc1cccc(C(=O)N2CCCCC2)c1	/	/	-4	-1.5	-7	-2.3	/	-2.4
CCOc1ccccc1NC(=O)c1ccc(NC(=O)c2ccco2)cc1	-29	-2.1	13	0.8	2	0.5	2	2.0
COc1ccc(Nc2nc(-c3ccc(OC)cc3)c(CCC(=O)O)s2)cc1	-3	3.2	6	1.4	-4	3.5	5	0.7

By substructure: the entries above with an aryl thioether with sulfur outside any ring
SMILES	Calb FLC	RanGTP-Impb inh	B2AR ag	LANA-H2B inh	Beta cell apopt	UCH37 DUB inh	T cruzi inh	A1 inh
NC(=O)CSc1nc2cc([N+](=O)[O-])ccc2n1-c1cccc(C(F)(F)F)c1	?	2.3	0	1.0	6	1.7	-8	-0.6
CCOC(=O)NC(=O)COC(=O)c1ccc(Sc2ncn[nH]2)c([N+](=O)[O-])c1	-8	7.2	2	2.9	-7	6.8	-21	1.1
Cc1ccc(NC(=O)c2c(C(F)(F)F)nn(C)c2SCc2cccc(C(F)(F)F)c2)cc1C	-21	0.3	-4	4.4	88*	3.3	59*	0.3
CCSc1nnc(NC(=O)Cc2cc(OC)c(OC)c(OC)c2)s1	0	2.0	-1	2.7	0	1.7	-5	0.3
Cc1cc(C)nc(SCc2cc(=O)c(OC(=O)c3ccco3)co2)n1	-4	-0.8	9	-0.1	-2	4.8	4	0.1
CC1(C)CC(=O)C(Sc2ccccc2C(=O)O)=C(O)C1	-6	-0.4	1	-1.0	-6	0.9	-10	0.5
Cc1ccc(NCc2nnc(SCC(=O)O)n2Cc2ccccc2)cc1Cl	-11	-1.3	-9	0.1	-6	4.3	-7	0.0

Bioassay records from PubChem.

Rows are unselected, and some 4.3% of all compounds hit somewhere here.
